NPYLR7 agonist = mosquito NPYLR7 agonism | AID 1259423 | hit rate 0.15% among 270,000 | HEK293T NPYLR7/Galpha15, GCaMP6s calcium fluorescence | activation, % at 10 µM; in the data active = activation above about 40%;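 note: 0% = vehicle and 100% = reference agonist at the receptor; some compounds past the cut are filed as inactive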
NPYLR7 agonist max-min = also measured in NPYLR7 agonist; calls as there; activation, %; measured here: Max-Min RFU normalised activation; some inactives read as strong as hits;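 span of the calcium signal over five minutes; 0% = vehicle and 100% = native peptide agonist; compound fluorescence can raise it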
Numbers without * were called inactive; & = joins results of further samples. An excerpt; rates above refer to the full screens.

SMILES	NPYLR7 agonist	NPYLR7 agonist max-min
CCOC(=O)[C@H]1[C@@H](O)C(=O)NC12CCN(S(=O)(=O)c1ccc(C(C)=O)cc1)CC2	8	23
CCCn1c(SCC(=O)N(C2=CCCCC2)C2CC2)n[nH]c1=O	-3	-3
COc1ccc(OC)c(-c2cccc(-c3ccc(NC(=O)c4ccc(C(F)(F)F)cc4F)cc3)n2)c1	-6	-9
S=C(Nc1ccccc1)NC12CC3CC(CC(C3)C1)C2	-8	-13
Cc1ccc(Oc2ccccc2N)cc1	13	13
O=C(CSc1ccc2nnc(-c3cccs3)n2n1)N1CCN(c2ccccc2)CC1	-1	-1
Cc1nc2n(n1)C(=O)C(C(c1ccc(Cl)cc1)N1CCC(C)CC1)S2 (stereo unspecified)	-1	-2
COc1ccc(N2C(=O)CSC2c2ccccc2NC(=O)c2ccc(F)cc2)c(OC)c1 (stereo unspecified)	-1	1
COC(CNC(=O)c1nnc2nc(C)cc(C)n12)c1cccs1 (stereo unspecified)	-8	-14
CC(=O)N1N=C(c2cccs2)CC1c1cc2ccccc2[nH]c1=O (stereo unspecified)	5	3
CCCCCCn1c(-c2ccc(OC)cc2)csc1=Nc1ccc(F)cc1	-2	-6
CCOC(=O)c1nn(-c2ccccc2)c(=O)c2c(NC(=O)c3cccs3)scc12	0	-1
COc1ccc(N2C(=O)c3ccccc3NC23CCN(C(=O)c2cc4ccccc4n2C)CC3)cc1	1	12
CC(C)(C)c1cc2nc(C(=O)Nc3ccc(F)cc3)cc(-c3ccccc3F)n2n1	-4&19	-1&16
COc1ccc(NC(=O)c2ncn[nH]2)cc1OC	-2	-3
NC(=O)c1ccccc1NS(=O)(=O)c1cccs1	0	3
CCCC1C(c2ccc(OC)cc2)C(C#N)(C#N)C2(C#N)CC1(O)NC2=O (stereo unspecified)	4	1
CCOC(=O)C1=C(C)OC(=N)C(C#N)C1c1ccncc1 (stereo unspecified)	3	-4
COc1ccc(C(=O)N2C(C(=O)NCc3ccco3)COC23CCN(C(=O)c2ccccc2F)CC3)cc1 (stereo unspecified)	-1	18
CSc1ccccc1NC(=O)C1(C)CCN1C(=O)CC1CC1 (stereo unspecified)	9	6
Cn1nc(C(=O)NNC(=O)c2nn(Cc3ccccc3)c(=O)c3ccccc23)c2ccccc2c1=O	-7	-13
C=CCN1C(=O)C2(OCCCO2)c2ccccc21	3	2
COc1ccc(C2CC(c3ccccc3)=NN2C(=O)c2ccc(C)cc2)cc1 (stereo unspecified)	-8	-18
COc1ccccc1OCc1cc(C(=O)N2CCN(C)C[C@@H]2c2ccccc2)n[nH]1	2	0
O=C(COc1ccccc1Cl)NCc1ccc(N2CCOCC2)nc1	-12	-14
Cc1nnc(-c2ccc(NC(=O)NCc3nc(C)c(C)s3)cc2)o1	1	-3
COc1cc(CN2[C@@H]3CC[C@H]2CNC(=O)C3)cc2c1OCO2	-19	-19
COc1ncc(-c2ccc(-n3cccn3)cc2)c(OC)n1	0	-1
CN(C)CC1(O)CCCN(C(=O)c2coc(CN3CCOCC3)c2)CC1 (stereo unspecified)	7	6
CNCC(=O)NC(C)Cc1ncccc1C (stereo unspecified)	4	3
COCCOCC(=O)N1CCN(Cc2cc(=O)c(OCc3ccc(F)cc3)co2)CC1	24	10
O=S(=O)(NCC(c1ccsc1)N1CCc2ccccc2C1)c1ccccc1 (stereo unspecified)	2	-9
CCCC(=O)OCC(O)CN(Cc1c(C)nn(-c2ccccc2)c1Oc1ccccc1OC)CC1CC1 (stereo unspecified)	9	9
CCn1c(C2CCN(Cc3cnc(-c4ccccc4)nc3)CC2)nn(C)c1=O	3	1
FC(F)(F)c1ccc2c(c1)n(Cc1cccc(Cl)c1)c1[n+]2CCCCC1	9	1
O=C(NCCc1c(F)cccc1Cl)N1CCOCC1	8	3
COc1ccc(C(C)=O)cc1CN1C(=O)C(Cc2cccc(F)c2)ON=C1C (stereo unspecified)	14	3
O=C(c1cccc(Br)c1)N1CCCC(OCc2ccc(C(F)(F)F)cc2)C1 (stereo unspecified)	-6	0
CC(=O)NCCn1cnc(-c2ccccc2)c1-c1c(C)cccc1C	-3	-5
COc1ccc(S(=O)(=O)N2CCC3(CC2)SCCN3C(=O)c2cccc(C)c2)cc1	-3	3
CC(c1ccc(OC(F)F)cc1)N(C)CC1CCCO1 (stereo unspecified)	3	4
CC(=O)NCCC(=O)NNC(=O)CC12CC3CC(CC(C3)C1)C2	11	6
Cc1cc(C(=O)NCCCSc2nnc(C)s2)nc(C)n1	-4	-12
Cc1cc(CNC(=O)c2ccncc2F)c2[nH]c(-c3ccccc3)c(C)c2c1	2	0
COC(=O)c1c(C)c(C(=O)C(C)N(Cc2ccc(F)cc2)C(=O)COc2ccccc2)c(C)n1C (stereo unspecified)	-12	-7
C=CCn1cc(CN(C)C(C)c2nccs2)c(C)n1 (stereo unspecified)	1	-2
Cc1cc(C)c(CSc2nc(C)cc(=O)[nH]2)c(C)c1	-2	-4
O=C(Cc1ccccc1Cl)N1CCCC(CO)C1 (stereo unspecified)	-1	-1
CCOC(=O)c1c(NC(=O)c2ccc(F)cc2)sc(C(=O)Nc2cccc(C(F)(F)F)c2)c1C	-1	-5
Cc1cc(C)n(CCC(=O)NCCCc2ccccc2O)c(=O)n1	0	3

A run of entries of the results above, for reference:
SMILES	NPYLR7 agonist	NPYLR7 agonist max-min
CCOC(=O)[C@H]1[C@@H](O)C(=O)NC12CCN(S(=O)(=O)c1ccc(C(C)=O)cc1)CC2	8	23
CCCn1c(SCC(=O)N(C2=CCCCC2)C2CC2)n[nH]c1=O	-3	-3
COc1ccc(OC)c(-c2cccc(-c3ccc(NC(=O)c4ccc(C(F)(F)F)cc4F)cc3)n2)c1	-6	-9
S=C(Nc1ccccc1)NC12CC3CC(CC(C3)C1)C2	-8	-13
Cc1ccc(Oc2ccccc2N)cc1	13	13
O=C(CSc1ccc2nnc(-c3cccs3)n2n1)N1CCN(c2ccccc2)CC1	-1	-1
Cc1nc2n(n1)C(=O)C(C(c1ccc(Cl)cc1)N1CCC(C)CC1)S2 (stereo unspecified)	-1	-2
COc1ccc(N2C(=O)CSC2c2ccccc2NC(=O)c2ccc(F)cc2)c(OC)c1 (stereo unspecified)	-1	1
COC(CNC(=O)c1nnc2nc(C)cc(C)n12)c1cccs1 (stereo unspecified)	-8	-14
CC(=O)N1N=C(c2cccs2)CC1c1cc2ccccc2[nH]c1=O (stereo unspecified)	5	3
CCCCCCn1c(-c2ccc(OC)cc2)csc1=Nc1ccc(F)cc1	-2	-6
CCOC(=O)c1nn(-c2ccccc2)c(=O)c2c(NC(=O)c3cccs3)scc12	0	-1
COc1ccc(N2C(=O)c3ccccc3NC23CCN(C(=O)c2cc4ccccc4n2C)CC3)cc1	1	12
CC(C)(C)c1cc2nc(C(=O)Nc3ccc(F)cc3)cc(-c3ccccc3F)n2n1	-4&19	-1&16
COc1ccc(NC(=O)c2ncn[nH]2)cc1OC	-2	-3
NC(=O)c1ccccc1NS(=O)(=O)c1cccs1	0	3
CCCC1C(c2ccc(OC)cc2)C(C#N)(C#N)C2(C#N)CC1(O)NC2=O (stereo unspecified)	4	1
CCOC(=O)C1=C(C)OC(=N)C(C#N)C1c1ccncc1 (stereo unspecified)	3	-4
COc1ccc(C(=O)N2C(C(=O)NCc3ccco3)COC23CCN(C(=O)c2ccccc2F)CC3)cc1 (stereo unspecified)	-1	18
CSc1ccccc1NC(=O)C1(C)CCN1C(=O)CC1CC1 (stereo unspecified)	9	6
Cn1nc(C(=O)NNC(=O)c2nn(Cc3ccccc3)c(=O)c3ccccc23)c2ccccc2c1=O	-7	-13
C=CCN1C(=O)C2(OCCCO2)c2ccccc21	3	2
COc1ccc(C2CC(c3ccccc3)=NN2C(=O)c2ccc(C)cc2)cc1 (stereo unspecified)	-8	-18
COc1ccccc1OCc1cc(C(=O)N2CCN(C)C[C@@H]2c2ccccc2)n[nH]1	2	0

Next records follow:
SMILES	NPYLR7 agonist	NPYLR7 agonist max-min
CCOC(=O)C1(C)CCN1C(=O)c1c(F)cccc1F (stereo unspecified)	6	5
COCCN(C)CC1CCCN1C(=O)C1=NN(C)C(=O)CC1 (stereo unspecified)	5	1
O=C(c1cc2n(n1)CCN(Cc1ccc(Cl)c(Cl)c1)C2=O)N1CCc2ccccc2C1	18	14
Cn1cnnc1C1CCN(c2nc(-c3ccncc3)nc3c2CNC3)CC1	15	5
COc1ccc(CC(=O)Nc2nc(OCC(F)(F)F)cnc2-c2ccccc2)cc1	-13	-16
COc1ccc(CNc2nnc(SC(C)C(=O)NC(C)(C)C)s2)cc1 (stereo unspecified)	3	3
CC(C)CCN(Cc1cccn1Cc1ccc(C(C)(C)C)cc1)CC(O)CN1CCOCC1 (stereo unspecified)	-2	2
Cc1cc(C)nc(N2CC(CSc3ccccn3)OC2=O)n1 (stereo unspecified)	6	2
CN(C)c1ccc(NC(=O)c2cccc(F)c2)cc1CN(CC1CC1)S(=O)(=O)c1ccc(F)cc1	20	27
CCC(NC(=O)c1cccc(S(=O)(=O)NCC2CC2)c1)c1noc(C)n1 (stereo unspecified)	-5	-4
CCOC(=O)C1(Cc2ccccc2Cl)CCN(Cc2ccc(NC(C)=O)cc2)CC1	1	-1
COc1cccc(C(CNC(=O)c2nc3ccccc3s2)N2CCOCC2)c1 (stereo unspecified)	0	0
Cc1ccc(-c2nc(C(N)=O)c3[nH]c(=O)n(-c4ccccc4F)c3n2)o1	16	2
Cc1ccccc1C(=O)N1CCC(N2CCC(C(=O)NCc3cccnc3)CC2)CC1	20	13
N=C1c2ccccc2CN1Cc1ccc(CN2Cc3ccccc3C2=N)cc1	4	2
CC1CN(C(=O)CCN2CCc3sccc3C2c2cccc(F)c2)CCN1C(=O)Nc1ccccc1F (stereo unspecified)	-13	-16
CCOC(=O)C1CCCN(c2nc3c(-c4cccc(F)c4)nnn3c3ccc(Cl)cc23)C1 (stereo unspecified)	-1	-6
O=C(NCC1CC1)[C@@]1(OCc2ccc(F)cc2)CC(OCc2c(F)cccc2F)[C@H](O)[C@H](O)C1 (stereo partly specified)	5	9
COc1cc(CNCc2cc(C)cc3c(C)c(C)[nH]c23)cc2c1OCO2	-3	-4
Nc1nc2c(c(=O)[nH]1)CCN(C(=O)CCCc1cccs1)C2	9	9
COC(=O)[C@@H]1C[C@@H](NC(=O)c2c(C)nc3ncccn23)CN1C	5	3
CC(C)c1cc(NCC2CCCO2)n2c(nc3ccccc32)c1C#N (stereo unspecified)	-2	-5
COCCN(Cc1ccc(OC)cc1)c1c(C)nc2ccc(C(=O)Nc3ccc(Cl)c(Cl)c3)cn12	-3	-7
COc1ccc(NC(=O)N(CC(=O)N(CCc2ccccc2)Cc2ccc(C)o2)CC2CC2)cc1	6	14
CC(Oc1ccccc1Cl)C(=O)N1CCOC(c2ccccc2)C1 (stereo unspecified)	25	29
NC(=O)c1cnc2n1CCN(C(=O)c1ccc3c(c1)OCO3)C2	4	4
CC1CNC(=O)CCN1Cc1ccc(S(C)(=O)=O)cc1 (stereo unspecified)	16	10
Cc1ccc(CN(Cc2ccccc2)C(=O)CN(CC2CCCO2)C(=O)Nc2ccc(Cl)cc2Cl)s1 (stereo unspecified)	11	18
COc1ccc(CNC2CCN(Cc3ccc(OC)c(F)c3)CC2)cc1O	-6	-8
CC(N=c1ccccn1C(=O)Nc1ccc(Cl)cc1)c1ccco1 (stereo unspecified)	-4	-3
CCOC(=O)c1c(NC(=O)c2cc3nc(-c4ccco4)cc(C(F)(F)F)n3n2)sc(C)c1C	-5	-7
Cc1ccsc1CN(Cc1ccc(F)cc1)C(=O)CN(CCN1CCCC1)C(=O)Nc1cccc(C(F)(F)F)c1	0	2
COc1cccc(OC)c1OCc1nc(CN(CC(C)C)C(=O)C2CCCC2)cs1	17	18
CC(C)[C@H](NC(=O)OCc1ccccc1)C(=O)N[C@H](C=O)Cc1ccccc1	-2	23
CC1CCCN(C(c2cccc(F)c2)C2Sc3ncnn3C2=O)C1 (stereo unspecified)	2	2
Cc1cc(C)n2nc(C(=O)O)cc2n1	-3	2
CCCCOc1ccc(-c2nc(-c3ccccc3Cl)no2)cc1	-8	-12
CCn1c(CC2CCN(Cc3ccc4occc4c3)CC2)nn(C)c1=O	6	5
CCS(=O)(=O)c1ncc(CN(C)C(C)c2ccccc2OC)n1Cc1ccccc1 (stereo unspecified)	-10	-11
CCOC(=O)c1c(SC(C)C(=O)OCC)nc(=O)[nH]c1C (stereo unspecified)	-6	-4
CS(=O)(=O)N1CCCC(C(=O)N2CCOCC2)C1 (stereo unspecified)	5	6
CC1(C)NC(C)(C)c2nonc2/C1=N/O	-1	-3
Cc1cc(NC(=O)c2cc(-c3ccc(C(C)C)cc3)nc3ccccc23)no1	-1	-3
C#CCN(c1nccs1)S(=O)(=O)c1ccc(C)c(C)c1	-1	-4
CCC1CCCCC1NS(=O)(=O)CCN(C)S(=O)(=O)c1ccc(F)cc1 (stereo unspecified)	-1	-3
CC(C)(C)c1ccc(C(=O)Nn2cnnc2)cc1	-1	1
Cn1cnc2c1c(=O)n(CCCSc1nnnn1C1CC1)c(=O)n2C	5	7
Cc1cc(C)n(-c2ccc(NC(=O)C3CCN(C(=O)CCc4ccccn4)CC3)cc2)n1	9	9
Cc1ccc(NC(=O)N(Cc2ccccc2)Cc2cccn2Cc2cccc(C(F)(F)F)c2)c(C)c1	24	28
Cc1ccc(Oc2cnn(-c3ccc(Cl)c(Cl)c3)c(=O)c2Nc2cccc(C(=O)NCc3ccccn3)c2)cc1	17	17

New compounds follow:
SMILES	NPYLR7 agonist	NPYLR7 agonist max-min
CC(c1ccc(F)c(F)c1)N(C)C(=O)CCNC(=O)c1cccs1 (stereo unspecified)	6	1
CCc1noc(Cn2ncc(Cl)c2C)n1	18	10
COCCn1ccnc1-c1cc(CN2CCCCC2)cs1	2	1
C=CCNc1nc(-c2sc(NC(C)=O)nc2C)cs1	1	4
Cc1cc(Cl)ccc1N1C(=O)/C(=C\C2CCCN2C(=O)OC(C)(C)C)N(C)C1=S (stereo unspecified)	-7	3
CC1(C(=O)NS(=O)(=O)c2ccc3ccccc3c2)CCN1C(=O)c1cccc(F)c1 (stereo unspecified)	2	2

Bioassay records: PubChem BioAssay, Fisher Drug Discovery Resource Center
